Screens from PubChem.
A1 apoptosis 2: A1 inhibition read as caspase activation | 24,000 tested, under 10 active | caspase activation, % (test concentration not listed) | MEF A1-2A-BIM cells, caspase-Glo luminescence, 3 h; percent of clofoctol response, DMSO zero; in the data active = caspase activation above about 5.9%;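 also: wells of about 30 µL received 50 nL stock; the first replicate is given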
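Material: A1-2A-BIM-expressing MEF cells. Buffer or medium: RPMI-1640 plus 10% FBS. Incubation: cells settled overnight, compound exposure 3 h at 37 °C, 5% CO2. Signal: Caspase-Glo 3/7 luminescence, 1 h at room temperature.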
Starred values were filed as active, the others as inactive. An excerpt; count on the stated rates, not on these rows.

`CNC[C@@H]1OCCCC[C@H](C)Oc2ccc(NC(=O)Nc3ccc4c(c3)OCO4)cc2C(=O)N([C@@H](C)CO)C[C@@H]1C` gave A1 apoptosis 2 -0.4.
Screening COc1ccc(NC(=O)N(C)C[C@@H]2OCCCC[C@@H](C)Oc3ccc(N(C)C)cc3C(=O)N([C@H](C)CO)C[C@@H]2C)cc1 returned A1 apoptosis 2 0.4.
Screening C[C@H]1CN([C@@H](C)CO)C(=O)c2cc(NC(=O)C3CC3)ccc2O[C@H]1CN(C)C(=O)Nc1cccc2ccccc12 returned A1 apoptosis 2 1.3.
Screening Cc1noc(C)c1NC(=O)Nc1ccc2c(c1)C(=O)N([C@@H](C)CO)C[C@H](C)[C@H](CN(C)CC1CC1)O2 returned A1 apoptosis 2 -0.7.
CNC[C@@H]1OCCCC[C@H](C)Oc2ccc(NC(=O)Nc3ccc(OC)cc3)cc2C(=O)N([C@H](C)CO)C[C@H]1C was read as A1 apoptosis 2 0.7.
C[C@@H]1CN([C@@H](C)CO)C(=O)Cc2cc(NS(=O)(=O)c3ccccc3)ccc2O[C@@H]1CN(C)Cc1ccc(Oc2ccccc2)cc1 was read as A1 apoptosis 2 0.1.
`C[C@@H]1CN([C@H](C)CO)C(=O)c2cccc(NS(=O)(=O)c3cn(C)cn3)c2O[C@@H]1CN(C)C(=O)Nc1cccc2ccccc12` gave A1 apoptosis 2 0.8.
For COc1ccc([Si](C)(C)[C@@H]2[C@@H](CCO)O[C@]3(C(=O)N(Cc4cccc(N5CCOC5=O)c4)c4ccccc43)[C@H]2C)cc1 the results were A1 apoptosis 2 -0.8.
Screening C[C@H]1CN([C@@H](C)CO)C(=O)Cc2cc(NC(=O)CCN3CCOCC3)ccc2O[C@@H]1CN(C)CC1CC1 returned A1 apoptosis 2 -0.4.
For C[C@@H]1CN([C@H](C)CO)C(=O)c2cc(NC(=O)c3ccncc3)ccc2O[C@H]1CN(C)C(=O)Nc1ccc2c(c1)OCO2 the results were A1 apoptosis 2 1.3.

Molecules from the list above with an aryl methoxy group:
Screening COc1ccc(NC(=O)N(C)C[C@@H]2OCCCC[C@@H](C)Oc3ccc(N(C)C)cc3C(=O)N([C@H](C)CO)C[C@@H]2C)cc1 returned A1 apoptosis 2 0.4.
CNC[C@@H]1OCCCC[C@H](C)Oc2ccc(NC(=O)Nc3ccc(OC)cc3)cc2C(=O)N([C@H](C)CO)C[C@H]1C was read as A1 apoptosis 2 0.7.
For COc1ccc([Si](C)(C)[C@@H]2[C@@H](CCO)O[C@]3(C(=O)N(Cc4cccc(N5CCOC5=O)c4)c4ccccc43)[C@H]2C)cc1 the results were A1 apoptosis 2 -0.8.

New compounds follow.
Screening C[C@H]1CN([C@@H](C)CO)C(=O)Cc2cc(NS(=O)(=O)c3cn(C)cn3)ccc2O[C@H]1CN(C)S(=O)(=O)c1cn(C)cn1 returned A1 apoptosis 2 -0.4.
C[C@@H]1CN([C@@H](C)CO)C(=O)c2cccc(NS(=O)(=O)c3ccc(Cl)cc3)c2O[C@@H]1CN(C)C(=O)Nc1ccccc1 was read as A1 apoptosis 2 -1.4.
C=C[C@@H](COC(=O)c1ccc([N+](=O)[O-])cc1)N(Cc1ccc(OC)cc1)S(=O)(=O)c1ccc(Br)cc1 was read as A1 apoptosis 2 -1.1.
For CC(C)NC(=O)Nc1ccc2c(c1)CC(=O)N([C@@H](C)CO)C[C@@H](C)[C@H](CN(C)Cc1ccncc1)O2 the results were A1 apoptosis 2 -0.7.
`CC(=O)Nc1ccccc1-c1cn(CC(=O)N2CCOCC2)nn1` gave A1 apoptosis 2 0.6.
Screening C[C@H]1CCCCO[C@@H](CN(C)S(=O)(=O)c2ccccc2)[C@@H](C)CN([C@@H](C)CO)C(=O)c2cc(NS(=O)(=O)c3cn(C)cn3)ccc2O1 returned A1 apoptosis 2 0.8.
Screening CC(C)NC(=O)N(C)C[C@H]1OCCCC[C@@H](C)Oc2ccc(NC(=O)c3ccncc3)cc2C(=O)N([C@H](C)CO)C[C@H]1C returned A1 apoptosis 2 -0.5.
Screening C[C@@H]1CN([C@@H](C)CO)C(=O)c2cc(NC(=O)Nc3ccc4c(c3)OCO4)ccc2O[C@H]1CN(C)Cc1ccc(Cl)c(Cl)c1 returned A1 apoptosis 2 -0.5.
Screening C[C@@H]1CCCCO[C@H](CN(C)S(=O)(=O)c2ccc(Cl)cc2)[C@@H](C)CN([C@H](C)CO)C(=O)c2cc(NC(=O)Nc3ccc4c(c3)OCO4)ccc2O1 returned A1 apoptosis 2 1.3.
For C[C@H](CO)N1C[C@H](C)[C@H](CN(C)S(=O)(=O)c2ccc3c(c2)OCCCO3)OCc2cn(nn2)CCCC1=O the results were A1 apoptosis 2 -1.0.
For Cc1noc(C)c1S(=O)(=O)Nc1ccc2c(c1)C(=O)N([C@H](C)CO)C[C@H](C)[C@@H](CN(C)Cc1ccc(C(=O)O)cc1)O2 the results were A1 apoptosis 2 0.6.
For CNC[C@@H]1OCCCC[C@@H](C)Oc2ccc(NC(=O)c3ccncc3)cc2C(=O)N([C@@H](C)CO)C[C@H]1C the results were A1 apoptosis 2 0.5.
C[C@@H]1CN([C@@H](C)CO)C(=O)Cc2cc(NC(=O)c3ccncc3)ccc2O[C@H]1CN(C)CC1CC1 was read as A1 apoptosis 2 -0.5.
For C[C@@H]1CN([C@H](C)CO)C(=O)c2cccc(NC(=O)c3nc4ccccc4s3)c2O[C@@H]1CN(C)C(=O)Nc1ccccc1 the results were A1 apoptosis 2 -0.8.
Screening Cc1noc(C)c1S(=O)(=O)Nc1ccc2c(c1)C(=O)N([C@@H](C)CO)C[C@H](C)[C@H](CN(C)Cc1ccc(Cl)c(Cl)c1)O2 returned A1 apoptosis 2 0.5.
For C[C@@H]1CN([C@H](C)CO)C(=O)Cc2cc(NC(=O)Nc3ccccc3)ccc2O[C@@H]1CN(C)Cc1ccncc1 the results were A1 apoptosis 2 1.2.
COc1ccc(CCNC(=O)[C@@]2(Cc3ccccc3I)c3ccccc3C(=O)N(Cc3ccccc3OC)[C@H]2c2ccc(CO)cc2)cc1 was read as A1 apoptosis 2 -0.2.
For CNC[C@H]1Oc2ccc(NS(=O)(=O)c3ccc(OC)cc3)cc2CC(=O)N([C@@H](C)CO)C[C@@H]1C the results were A1 apoptosis 2 0.0.
C[C@H]1CN([C@@H](C)CO)C(=O)c2cc(NC(=O)Cn3cnnn3)ccc2O[C@@H]1CN(C)C(=O)Nc1ccc(F)cc1 was read as A1 apoptosis 2 -0.6.
C[C@H]1CCCCO[C@H](CN(C)C)[C@@H](C)CN([C@@H](C)CO)C(=O)c2cc(NC(=O)C3CCCCC3)ccc2O1 was read as A1 apoptosis 2 0.3.

Two compounds picked at random from those above, as already listed:
For C[C@@H]1CN([C@H](C)CO)C(=O)c2cccc(NC(=O)c3nc4ccccc4s3)c2O[C@@H]1CN(C)C(=O)Nc1ccccc1 the results were A1 apoptosis 2 -0.8.
C[C@@H]1CN([C@@H](C)CO)C(=O)Cc2cc(NC(=O)c3ccncc3)ccc2O[C@H]1CN(C)CC1CC1 was read as A1 apoptosis 2 -0.5.

Later entries
For C[C@@H]1CCCCO[C@@H](CN(C)S(=O)(=O)c2ccc(Cl)cc2)[C@@H](C)CN([C@@H](C)CO)C(=O)c2cc(NC(=O)Cc3ccccc3)ccc2O1 the results were A1 apoptosis 2 -0.3.
`C[C@@H]1CN([C@@H](C)CO)C(=O)c2cc(NC(=O)Nc3ccc(C(F)(F)F)cc3)ccc2O[C@@H](C)CCCCO[C@@H]1CN(C)C(=O)Nc1ccc2c(c1)OCO2` gave A1 apoptosis 2 0.2.
For Cc1noc(C)c1S(=O)(=O)Nc1ccc2c(c1)C(=O)N([C@@H](C)CO)C[C@@H](C)[C@@H](CN(C)Cc1ccc(C(F)(F)F)cc1)OCCCC[C@H](C)O2 the results were A1 apoptosis 2 -0.3.
C[C@@H]1CN([C@@H](C)CO)C(=O)c2cccc(NS(C)(=O)=O)c2O[C@@H]1CN(C)S(=O)(=O)c1cn(C)cn1 was read as A1 apoptosis 2 0.6.
For COc1ccc(S(=O)(=O)N(C)C[C@@H]2Oc3c(NC(=O)Nc4ccccc4)cccc3C(=O)N([C@H](C)CO)C[C@@H]2C)cc1 the results were A1 apoptosis 2 -0.3.
Screening [O-]/[N+](=N\OCCBr)N1CCCC1 returned A1 apoptosis 2 -0.6.
For C[C@@H]1CN([C@H](C)CO)C(=O)c2cc(NC(=O)Cc3ccccc3)ccc2O[C@H]1CN(C)S(=O)(=O)c1ccc(F)cc1 the results were A1 apoptosis 2 0.2.
Screening C[C@H]1CN([C@@H](C)CO)C(=O)c2cccc(NS(=O)(=O)c3ccc(F)cc3)c2O[C@H]1CN(C)C(=O)Nc1cccc2ccccc12 returned A1 apoptosis 2 -0.1.
For C[C@H]1CN([C@@H](C)CO)C(=O)Cc2cc(NC(=O)CCC(F)(F)F)ccc2O[C@H]1CN(C)S(=O)(=O)c1ccccc1 the results were A1 apoptosis 2 0.7.
For C[C@H](CO)N1C[C@H](C)[C@@H](CN(C)C(=O)Nc2ccc(C(F)(F)F)cc2)Oc2ccc(NS(=O)(=O)c3ccccc3)cc2C1=O the results were A1 apoptosis 2 0.6.
`[N-]=[N+]=Nc1ccc(C[C@H]2C(=O)O[C@@H](Cc3ccccc3)[C@H]3C=C(/C=C/C4CC4)CN32)cc1` gave A1 apoptosis 2 -0.3.
Screening COC(=O)C(CC#Cc1ccc2c(c1)[C@]1(C(=O)N2)[C@H](C(=O)Nc2nc3ccccc3s2)[C@H]2C(=O)O[C@H](c3ccccc3)[C@H](c3ccccc3)N2[C@@H]1c1ccccc1OCCO)C(=O)OC returned A1 apoptosis 2 0.1.
COc1ccc(NC(=O)Nc2ccc3c(c2)C(=O)N([C@H](C)CO)C[C@H](C)[C@@H](CN(C)C(=O)C2CCCCC2)OCCCC[C@@H](C)O3)cc1 was read as A1 apoptosis 2 2.9.
For O=C(N/N=C/c1ccc(O)c(O)c1)c1ccccn1 the results were A1 apoptosis 2 -6.5.
Screening C[C@@H]1CCCCO[C@H](CN(C)S(C)(=O)=O)[C@@H](C)CN([C@@H](C)CO)C(=O)c2cc(NC(=O)Nc3ccc(F)cc3)ccc2O1 returned A1 apoptosis 2 0.6.
`Cc1ccc(S(=O)(=O)Nc2ccc3c(c2)C(=O)N([C@@H](C)CO)C[C@H](C)[C@@H](CN(C)C(=O)NC(C)C)OCCCC[C@@H](C)O3)cc1` gave A1 apoptosis 2 -0.9.
C[C@H]1CCCCO[C@H](CN(C)Cc2ccccc2)[C@@H](C)CN([C@@H](C)CO)C(=O)c2cc(NS(C)(=O)=O)ccc2O1 was read as A1 apoptosis 2 -0.2.
Screening C[C@@H]1CCCCO[C@@H](CN(C)C(=O)NC2CCCCC2)[C@@H](C)CN([C@@H](C)CO)C(=O)c2cc(NC(=O)NC3CCCCC3)ccc2O1 returned A1 apoptosis 2 0.0.
`C[C@@H]1CCCCO[C@@H](CN(C)C(=O)c2ccncc2)[C@H](C)CN([C@H](C)CO)C(=O)c2cc(NC(=O)CCC(F)(F)F)ccc2O1` gave A1 apoptosis 2 0.5.
Screening C[C@@H]1CN([C@H](C)CO)C(=O)c2cc(NC(=O)Nc3ccc(F)cc3)ccc2O[C@@H](C)CCCCO[C@H]1CN(C)C(=O)Nc1ccccc1 returned A1 apoptosis 2 0.0.
For C[C@@H]1CN([C@@H](C)CO)C(=O)c2cc(NC(=O)Nc3cccc4ccccc34)ccc2O[C@@H](C)CCCCO[C@@H]1CN(C)S(=O)(=O)c1ccccc1 the results were A1 apoptosis 2 0.2.
`C[C@H]1CN([C@@H](C)CO)C(=O)c2cc(NC(=O)Nc3ccc4c(c3)OCO4)ccc2O[C@@H]1CN(C)S(=O)(=O)c1ccccc1` gave A1 apoptosis 2 0.5.
For COc1ccc(S(=O)(=O)Nc2ccc3c(c2)C(=O)N([C@H](C)CO)C[C@@H](C)[C@H](CN(C)C(=O)NC(C)C)O3)cc1 the results were A1 apoptosis 2 -0.8.
`O=c1[nH]c(=O)c2cc(Br)ccc2[nH]1` gave A1 apoptosis 2 1.7.
C[C@H]1CCCCO[C@H](CN(C)C(=O)C2CCCCC2)[C@@H](C)CN([C@@H](C)CO)C(=O)c2cc(NC(=O)Nc3ccc(F)cc3)ccc2O1 was read as A1 apoptosis 2 -0.7.
`O=C(CCCCCC(=O)N/N=C/c1cccs1)NO` gave A1 apoptosis 2 1.3.
O=C(CCCCCCC(=O)Nc1ccccc1O)N/N=C/c1ccccc1O was read as A1 apoptosis 2 -0.4.
`C[C@H]1CN([C@@H](C)CO)C(=O)Cc2cc(NC(=O)Cn3cnnn3)ccc2O[C@@H]1CN(C)C(=O)Nc1ccccc1` gave A1 apoptosis 2 0.3.
For C[C@@H]1CCCCO[C@H](CN(C)S(=O)(=O)c2ccccc2)[C@H](C)CN([C@H](C)CO)C(=O)c2cc(NC(=O)C3CCCCC3)ccc2O1 the results were A1 apoptosis 2 1.5.
Screening C[C@@H]1CN([C@H](C)CO)C(=O)c2cc(NS(=O)(=O)c3ccccc3)ccc2O[C@@H](C)CCCCO[C@H]1CN(C)Cc1ccc2c(c1)OCO2 returned A1 apoptosis 2 -0.9.
C[C@H]1CCCCO[C@H](CN(C)S(=O)(=O)c2cn(C)cn2)[C@@H](C)CN([C@@H](C)CO)C(=O)c2cc(NC(=O)Cc3ccccc3)ccc2O1 was read as A1 apoptosis 2 0.4.
For O=C(N/N=C/c1cccc2ccccc12)c1ccccn1 the results were A1 apoptosis 2 -6.0.

An excerpt from above in order of length of the SMILES, highest first.
C[C@H]1CCCCO[C@H](CN(C)S(=O)(=O)c2cn(C)cn2)[C@@H](C)CN([C@@H](C)CO)C(=O)c2cc(NC(=O)Cc3ccccc3)ccc2O1 was read as A1 apoptosis 2 0.4.
C[C@H]1CCCCO[C@H](CN(C)C(=O)C2CCCCC2)[C@@H](C)CN([C@@H](C)CO)C(=O)c2cc(NC(=O)Nc3ccc(F)cc3)ccc2O1 was read as A1 apoptosis 2 -0.7.
`C[C@H]1CN([C@@H](C)CO)C(=O)Cc2cc(NC(=O)Cn3cnnn3)ccc2O[C@@H]1CN(C)C(=O)Nc1ccccc1` gave A1 apoptosis 2 0.3.
For O=C(N/N=C/c1cccc2ccccc12)c1ccccn1 the results were A1 apoptosis 2 -6.0.
